# VACV mCherry inh = inhibitors of vaccinia virus infection (mCherry reporter signal); Vaccinia virus mCherry reporter infection, fluorescence; about a quarter of the inactives have no number; Potency, µM (series often up to 36.5 µM), inactives show top-dose activity change, negative = inhibition, usual class: inhibitors; 310,000 tested, 0.63% active; active = well fitted inhibition curve with a large enough effect; inconclusive = small, poorly fitted or top-dose-only effect; inactive = no such curve, though single readings can be large or run the other way; tested in A549 cells; note: nearly all actives have a fitted effect of over 35% in size; inactives centre near -10
# Vaccinia Venus = vaccinia inhibition (Venus reporter); Vaccinia virus Venus reporter expression, fluorescence; Potency, µM (highest dose often 36.5 µM), inactives show top-dose activity change, negative = inhibition, usual class: inhibitors; 330,000 tested, 0.46% active; active means well fitted inhibition curve with a large enough effect; inconclusive means small, poorly fitted or top-dose-only effect; inactive means no such curve, though single readings can be large or run the other way; tested in A549 cells; note: nearly all actives have a fitted effect of over 30% in size; inactives centre near -10
# Starred values were filed as active, the others as inactive; i = inactive; ? = inconclusive; . = not tested or not shown; & = joins results of further samples; [ ] = remark or other dose. % is set by controls: 0 for no effect and ±100 for the full control effect; potency is the fitted concentration of half-maximal effect.
SMILES,VACV mCherry inh,Vaccinia Venus
O=C(N/N=C/c1cc(Br)c(Br)o1)c1cccnc1,-27%,-9%
Cc1cc(C(=O)N/N=C/c2ccc[nH]2)n[nH]1,i,-9%
O=C(O)CCC(=O)NC(c1ccccc1)c1ccccc1,-9%,-9%
CCCc1nc2ccccc2c(=O)n1/N=C/c1ccc(O)c(O)c1,.,-11%
CCOc1ccc(NC(=O)C2CCC(N3C(=O)C4CC=CCC4C3=O)CC2)cc1 (stereo not given),-4%,-13%
Cn1c(-c2ccc3c(c2)OCO3)cnc1NCc1cccc(O)c1,-21%,-13%
CCOc1ccc(CCNC(=O)c2ccc(C)c(NC3=NC4CS(=O)(=O)CC4S3)c2)cc1 (stereo not given),-16%,4%
CCCNC(=O)COC(=O)/C=C/c1ccc2c(c1)OCO2,-8%,-1%
CCc1nc2ccc(C(=O)Nc3cc(-c4ccccc4)ccc3OC)cn2c1N(CCN(C)C)CC1CC1,?,?
NS(=O)(=O)c1ccc(N2C(=O)C3CC=CCC3C2=O)cc1 (stereo not given),-20%,1%

# Part of the list above in order of SMILES length, smallest number first:
SMILES,VACV mCherry inh,Vaccinia Venus
O=C(O)CCC(=O)NC(c1ccccc1)c1ccccc1,-9%,-9%
CCCNC(=O)COC(=O)/C=C/c1ccc2c(c1)OCO2,-8%,-1%
Cn1c(-c2ccc3c(c2)OCO3)cnc1NCc1cccc(O)c1,-21%,-13%
CCCc1nc2ccccc2c(=O)n1/N=C/c1ccc(O)c(O)c1,.,-11%
CCOc1ccc(NC(=O)C2CCC(N3C(=O)C4CC=CCC4C3=O)CC2)cc1 (stereo not given),-4%,-13%
CCOc1ccc(CCNC(=O)c2ccc(C)c(NC3=NC4CS(=O)(=O)CC4S3)c2)cc1 (stereo not given),-16%,4%
CCc1nc2ccc(C(=O)Nc3cc(-c4ccccc4)ccc3OC)cn2c1N(CCN(C)C)CC1CC1,?,?

# Later entries.
SMILES,VACV mCherry inh,Vaccinia Venus
CCc1ccccc1N(C)C(=O)CCc1nc(-c2ccc(C)cc2)no1,.,-20%
Cc1cccc(NC(=O)CSc2ncc(-c3ccc(Br)cc3)[nH]2)c1,-21%,-16%
Cc1ccccc1N=Cc1cc2c(cc1O)OC(N)=C(C#N)C2c1ccccc1 (stereo not given),i,-9%
CC(O)(c1cccnc1)c1nc(-c2ccc3c(c2)OCO3)cs1 (stereo not given),?,-13%
Cc1ccc(NC(=O)[C@@H]2CCCN2S(=O)(=O)c2ccc(Cl)cc2)cc1,i,-18%
C[C@@H]1CN([C@H](C)CO)S(=O)(=O)c2ccc(C#Cc3cccc(F)c3)cc2O[C@@H]1CN(C)C(=O)CN1CCOCC1,?,?
O=C(NCC1CC1)C1(C(F)(F)F)CC(CCCO)CCCO1 (stereo not given),i,-4%
COc1cc(OC)c(NS(=O)(=O)c2cc(-c3cnc(C)o3)ccc2OC)cc1Cl,-28%,-19%
O=S1(=O)[C@H]2CC3O[C@]2(C[C@@H]3c2ccc(F)cc2)CN1Cc1ccc(Cl)cc1,-23%,-28%
COc1ccc(OCC(=O)N/N=C2\CCCc3ccccc32)cc1,-13%,-12%
CCCN(C(=O)c1cn(C)c(=O)c2ccccc12)c1ccccc1C,-4%&-15%,-1%&1%
CC1=CC(=O)C=CC1(C)C(Cl)Cl (stereo not given),-6%,-2%
Cc1ccc(CCNC(=O)C(CC(C)C)NS(=O)(=O)c2ccc3c(c2)oc(=O)n3C)cc1 (stereo not given),-12%,-1%
COc1cc(C(=O)Nc2nc(OC)c(-c3ccccc3)c(OC)n2)cc(OC)c1OC,-27%,-24%
CC1CCC2(CC1)NC(=O)N(CC(=O)NC1CCCCC1C)C2=O (stereo not given),-6%,-23%
CCOC(=O)[C@]12CCC=C1N(Cc1ccco1)C(=O)[C@H](CC(=O)NCCCOC)C2,6%,-4%
C=CCn1c(SCC(=O)Nc2cc(C)on2)nc2sc(C)c(C)c2c1=O,-7%,-19%
C[C@@H](O)C1NC(=O)[C@H](CCCCN)NC(=O)c2cc([N+](=O)[O-])cc(I)c2NCCC[C@@H](C(N)=O)NC1=O (stereo not given in full),-1%,-5%
O=C(NCCc1nnc2n1CCN(Cc1c(F)cccc1F)CC2)c1ccc(F)cc1,-16%,-16%
Cc1ccccc1Cn1c(CN2CCC(C(=O)NCc3cccnc3)CC2)cc2ccccc21,-16%,-15%

# One compound at a time (already shown). Screens in order: VACV mCherry inh	Vaccinia Venus
# Record of Cc1ccccc1Cn1c(CN2CCC(C(=O)NCc3cccnc3)CC2)cc2ccccc21 : -16%	-15%
# Record of O=C(NCCc1nnc2n1CCN(Cc1c(F)cccc1F)CC2)c1ccc(F)cc1 : -16%	-16%
# Record of C=CCn1c(SCC(=O)Nc2cc(C)on2)nc2sc(C)c(C)c2c1=O : -7%	-19%

# Remaining list, next part
SMILES,VACV mCherry inh,Vaccinia Venus
Cc1ccc(C(=O)/C=C/Nc2ccccc2C(N)=O)o1,i,-10%
NC(=O)c1c(NC(=O)c2ccccc2F)sc2c1CCCC2,-3%,-19%
CC1(C(=O)Nc2ccc3[nH]ncc3c2)CCN1C(=O)CCc1ccccc1 (stereo not given),i,-8%
COc1cc2c(cc1NC(=O)c1ccccc1F)CCCC2,-24%,-17%
O=C(O)C1(Cc2nc3ccccc3[nH]2)CCCC1,-8%,-3%
COC(=O)c1sc(S(=O)(=O)N2CCC(C(N)=O)CC2)c(C(=O)OC)c1C,-13%,-7%
O=C(NCc1ccco1)c1c[nH]c2ccc(S(=O)(=O)N3CCOCC3)cc2c1=O,.,-16%
Cc1ccc(NC(=O)COC(=O)c2ccc(CN3CCCC3=O)cc2)c(Cl)c1,i,-10%
COc1ccc(-c2oc3c(c2C#CC2(O)CCCCC2)C(OC(C)=O)CCC3)cc1 (stereo not given),-18%,-16%
CS(=O)(=O)N1CCN(c2ccc([N+](=O)[O-])c(N3CCOCC3)c2)CC1,-13%,-6%
CCOC(=O)CSc1ccc2nnc(CCNS(=O)(=O)c3ccccc3)n2n1,-12%,-8%
COc1ccc(OCC(O)Cn2c(Nc3ccccc3)nc3c2c(=O)n(C)c(=O)n3C)cc1 (stereo not given),.,-6%
CCOC(=O)c1ccc(NC(=O)N2CCCCCC2)cc1,-13%,-6%
COc1ccc2oc3cc(NCCN(C)C)ccc3c(=O)c2c1,0%,?
CS(=O)(=O)N(Cc1ccc(Cl)cc1)c1ccc(C(=O)N/N=C/c2cc3ccccc3nc2Cl)cc1,-8%,0%
O=C(NC1CCCC1)C(c1ccc(O)cc1)N(CC1CCCO1)C(=O)C1COc2ccccc2O1 (stereo not given),-11%,-2%
CCCOc1ccccc1C(=O)N1CCCCC1CCN1CCCCC1 (stereo not given),-15%[7.34 µM],-5%[7.34 µM]
COc1ccc([N+](=O)[O-])cc1NC(=O)C(C)Sc1ccccc1 (stereo not given),-12%,-6%
CNC(=S)N1CCn2cccc2C1c1cccnc1 (stereo not given),i,-14%
COc1ccc(/C(O)=C2/C(=O)C(=O)N(CCN(C)C)C2c2ccccc2)cc1Cl (stereo not given),.,-21%
Cc1nn2c(=O)cc(COC(=O)c3ccco3)nc2s1,1%,-8%
Cc1ccc2oc(=O)n(CCOc3ccccc3Cl)c2c1,-15%,-13%
COc1cccc(-c2nc(S(=O)(=O)c3ccc(Cl)cc3)c(NCc3ccccc3)o2)c1,-1%[7.34 µM],-5%[7.34 µM]
Cc1ccc(S(=O)(=O)Nc2cc(C)on2)cc1,i,2%
Cc1ccc(NC2CCCN(C(=O)CCc3ccncc3)C2)cc1C (stereo not given),?,-2%
CC(=O)c1ccc(NC(=O)CC(C)S(=O)(=O)c2ccc3c(c2)CCN3C(C)=O)cc1 (stereo not given),-15%,-8%
CC(NC(=O)c1ccc(Cn2c(=O)c3cccn3c3cccnc32)cc1)c1ccccc1 (stereo not given),-24%,-23%
CC(Oc1ccccc1)C(=O)Nc1nnc2n1CCS2 (stereo not given),3%[7.34 µM],0%[7.34 µM]
C#Cc1ccc([C@H]2C=C(C(=O)NCc3ccccc3)O[C@@H](OCC)[C@@H]2CCCO)cc1,-24%,?
NNc1ccc(Cc2ccc(Cl)cc2Cl)nn1,-18%,-7%
CCOC(=O)c1nc(C)sc1-c1ccnn1S(=O)(=O)c1ccccc1C(F)(F)F,i[7.34 µM],-3%[7.34 µM]
COc1ccc(CN(C)C(C)C(=O)Nc2ccc([N+](=O)[O-])cc2Cl)cc1OC (stereo not given),?,-22%
COCCNC(=O)c1ccc(N2CCCCC2)c(NS(=O)(=O)c2ccc(C)cc2)c1,.,-28%
COc1cc(-c2ccc(Cl)cn2)cc2c1OCCN(C(=O)c1ccccc1-n1cccn1)C2,-20%,-9%
N=c1sccn1CC(=O)Nc1cc(S(=O)(=O)N2CCCCC2)ccc1Cl,-21%,-7%
N#Cc1c(Nc2ccccc2)c(/C=N/N=C/c2ccccc2)c[nH]c1=O,-25%,-16%
COc1ccc(OCCCc2c(C)n[nH]c2C)cc1,i,-23%
Cc1cccc(C(=O)O/N=C(\N)Cc2ccc([N+](=O)[O-])cc2)c1,-13%[1.46 µM],-27%
Cc1c(Cl)cccc1NC(=O)C1CC(=O)N(C2CCCC2)C1 (stereo not given),-17%,-13%
N#CC(Cc1ccccc1OC(F)F)c1nc2ccccc2[nH]1 (stereo not given),-8%,-8%

# The closing two entries of the section before lead into the next.
SMILES,VACV mCherry inh,Vaccinia Venus
Cc1c(Cl)cccc1NC(=O)C1CC(=O)N(C2CCCC2)C1 (stereo not given),-17%,-13%
N#CC(Cc1ccccc1OC(F)F)c1nc2ccccc2[nH]1 (stereo not given),-8%,-8%
COc1cc(/C=C(\C#N)c2nc3ccccc3[nH]2)cc(Br)c1OCc1ccccc1,-15%,-13%
Nc1c(Cl)ncnc1NCCc1ccc(O)cc1,?,-15%
O=C(NC1CCN(Cc2ccccc2)CC1)C1CCN(S(=O)(=O)c2cccc3nsnc23)CC1,-21%,-15%
COC(=O)Cc1c(C)nc2nc(NCc3c(F)cccc3Cl)[nH]n2c1=O,.,4%
COc1ccc(S(=O)(=O)Nc2cccc3c2O[C@H](CN(C)S(=O)(=O)c2cn(C)cn2)[C@@H](C)CN([C@H](C)CO)C3=O)cc1,-15%,-7%
COc1ccc(-c2cc(=O)n(-c3ccc([N+](=O)[O-])cc3)[nH]2)cc1,i,-13%
Cc1ccc(Cl)cc1N1CCN(C(=O)c2cc(S(=O)(=O)N3CCCCC3)cn2C)CC1,-26%,-5%
COC(=O)c1ccccc1NC(=O)CN1CCC(C(=O)c2ccc3c(c2)OCCO3)CC1,-21%,-24%
Cc1ccc(NC(=O)c2sc3ncnc(N(C)C4CCCCC4)c3c2C)cc1,5%,-9%
COc1ccc(-n2cc(-c3ccccc3)c3c(SC(C)C(C)=O)ncnc32)cc1 (stereo not given),-25%,-10%
C=CC(=C)CC(NC)c1ccccc1 (stereo not given),-20%,-9%
CCOC(=O)c1nc(S(C)(=O)=O)ncc1N1CCOCC1,-12%,-10%
C=CCN(C(=O)CNC(=O)c1ccco1)C(C(=O)NC1CCCC1)c1cccs1 (stereo not given),-11%,9%
C=CCN(C/C(=N\O)c1sc(C(=O)OCC)nc1C)c1cccc(Br)c1,i,-5%
Cc1nnsc1SCC(=O)O,-15%,-13%
Cc1noc(C)c1S(=O)(=O)NCCc1csc2nc(-c3ccc(Cl)cc3)nn12,-13%,-13%
Cc1ccc(-n2c(CC#N)n[nH]c2=S)c(C)c1,i,0%
Clc1ccc(CN2CCc3nc(Nc4ccc5c(c4)OCCO5)ncc3C2)cc1,-4%,-8%
C=CCN1CCN(C(=O)CCc2ccccc2)CC1,-16%,-6%
CCOC(=O)c1c(S(=O)(=O)NCC(=O)NCc2cccc(C)c2)c(C)n(C)c1C,-7%&-3%,-15%&-11%
O=C(c1ccco1)N(Cc1ccccc1)c1cccc([N+](=O)[O-])c1,-16%,3%
CCCc1nc2ccccc2c(=O)n1CC(=O)c1ccc(F)cc1,i,-15%
CN(C)CCCOc1cccc(Oc2ccccc2)c1,-21%,-9%
CCOc1ccc(Cl)cc1-c1cc(C(=O)Nc2ccc(OC)nc2)[nH]n1,-16%,-17%
CN(CCC#N)C(=O)COC(=O)c1c2c(nc3ccccc13)/C(=C\c1ccco1)CC2,?,-21%
CCN1CCc2c(C#N)c(N3CCOCC3)nc(NCCO)c2C1,-1%,-3%
Cc1ccc(CNC(=O)C(=O)NCC2CCCN2S(=O)(=O)c2cc(C)ccc2C)cc1 (stereo not given),-15%,-20%
COc1ccc(NC(=O)CSc2nccn2-c2cccc(OC)c2)cc1,.,?
Cc1cccc2sc(NNC(=O)c3cc(-c4cccs4)nc4ccccc34)nc12,?,-18%
FC(F)(F)c1ccccc1/C=N/n1c(COc2ccccc2)n[nH]c1=S,2%,-14%
COc1cc2c(cc1OC)C(C)N(C(=O)c1ccc(Br)o1)CC2 (stereo not given),-24%,-22%
Cn1nc(C(=O)Nc2ccccc2N2CCOCC2)ccc1=O,-2%,-8%
COC(=O)c1ccc2c(=O)n(CCCCCC(=O)NC(C)C)c(=O)[nH]c2c1,-29%,-8%&-23%

# Part of the list above, with bars between the fields:
canonical_smiles | VACV mCherry inh | Vaccinia Venus
O=C(O)C1(Cc2nc3ccccc3[nH]2)CCCC1 | -8% | -3%
COC(=O)c1sc(S(=O)(=O)N2CCC(C(N)=O)CC2)c(C(=O)OC)c1C | -13% | -7%
O=C(NCc1ccco1)c1c[nH]c2ccc(S(=O)(=O)N3CCOCC3)cc2c1=O | . | -16%
